# From PubChem BioAssay
# YopH inh = YopH (Yersinia) phosphatase inhibition; fluorescence Ex485/Em525; inhibition, %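 (about 10 µM by stock and volumes)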; 140,000 compounds, 0.16% hits; AID 898;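 active = inhibition of 50% or more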;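 also: controls were vehicle for no effect and minimum signal wells for full effect; inactives centre near -20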
# Mtb growth = M. tuberculosis H37Rv growth inhibitors, H37Rv strain (AID 1626) | M. tuberculosis H37Rv growth inhibition; higher % means a stronger effect | inhibition, % at 10 µM; hits with a dose series show IC50 in µM | 220,000 compounds, 0.95% hits;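 active = confirmed in a dose series; inconclusive = inhibition above 80% but not taken into the dose series; inactive = below 80% or under 30% at every dose of the series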;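 also: bacteria incubated seven days before Alamar blue readout; 0% = bacteria only wells and 100% = bacteria with antibiotic wells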
# Arbovirus anti = blocks arbovirus infection; arbovirus infection cell-based antiviral screen; inhibition, % at 10 µM; 200,000 compounds, 0.37% hits;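 active = inhibition from about 30%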;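 also: bluetongue infection of BSR cells; cell survival read as ATP light after 72 h; 0% = infected wells without compound and 100% = uninfected wells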
# Mtb betalactam = beta-lactam sensitization of Mtb H37Rv | M. tuberculosis H37Rv growth with meropenem, percent inhibition; hits of this screen are not shown here | inhibition, % at 25 µM | 330,000 compounds, 0.27% hits | AID 434955;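 active = about 74% or more and at least 40 points above the plate without the antibiotic, then above 30% in a dose series; inconclusive = first-round hits that could not be retested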;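 also: growth measured after seven days incubation then overnight dye step; 0% = bacteria only wells and 100% = bacteria with antibiotic; twin plates without the antibiotic show which effects depend on it; some results filed as inactive read as strong as hits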
# RecA splice inh = Mtb RecA intein splicing inhibition; P9WHJ3; cell-free RecA intein splicing, fluorescence; inhibition, %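 (about 9 µM by stock and volumes)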; 290,000 compounds, 0.75% hits; in the data active = inhibition above about 30%; inconclusive = no clear call, values can overlap the other calls;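 also: 0% = vehicle wells and 100% = reference inhibitor control wells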
# Target sequence (P9WHJ3 whole entry, looked up, canonical isoform): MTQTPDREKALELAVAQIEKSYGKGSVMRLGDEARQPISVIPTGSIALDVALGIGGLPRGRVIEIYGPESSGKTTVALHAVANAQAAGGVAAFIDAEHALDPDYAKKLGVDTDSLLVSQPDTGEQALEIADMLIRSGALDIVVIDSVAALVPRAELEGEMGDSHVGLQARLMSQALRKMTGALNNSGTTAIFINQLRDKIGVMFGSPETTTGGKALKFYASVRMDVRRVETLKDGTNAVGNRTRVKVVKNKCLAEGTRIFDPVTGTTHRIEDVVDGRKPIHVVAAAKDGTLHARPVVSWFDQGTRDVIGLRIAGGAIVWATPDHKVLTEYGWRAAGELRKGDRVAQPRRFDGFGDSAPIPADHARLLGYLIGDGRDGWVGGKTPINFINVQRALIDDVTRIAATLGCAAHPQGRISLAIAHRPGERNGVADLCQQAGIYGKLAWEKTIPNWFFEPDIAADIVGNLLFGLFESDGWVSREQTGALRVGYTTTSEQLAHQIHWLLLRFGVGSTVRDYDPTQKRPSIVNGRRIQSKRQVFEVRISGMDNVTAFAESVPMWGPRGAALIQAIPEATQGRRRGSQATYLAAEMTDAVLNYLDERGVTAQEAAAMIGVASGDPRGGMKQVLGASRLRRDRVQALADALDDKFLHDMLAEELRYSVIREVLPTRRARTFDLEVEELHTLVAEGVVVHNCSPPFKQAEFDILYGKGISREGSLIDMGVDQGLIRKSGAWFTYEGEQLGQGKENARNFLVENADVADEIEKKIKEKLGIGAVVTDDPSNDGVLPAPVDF
# Arbovirus anti repeat = also measured in Arbovirus anti; calls as there; inhibition, %; measured here: 10K subset replicate screen; many hits read low in the repeat;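 first of two repeat runs on a subset; 0% = infected and 100% = uninfected wells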
# * marks the source's active call; other numbers are inactive results; u = inconclusive; x = no result given. The list is partial (hit frequency here may not be typical).
SMILES,YopH inh,Mtb growth,Arbovirus anti,Mtb betalactam,RecA splice inh,others
COc1cc(/C=N/NC(=O)NC23CC4CC(CC(C4)C2)C3)ccc1O,x,x,x,3,-1.1,
COc1ccc(C)cc1N(CC(N)=O)S(=O)(=O)c1ccc(C)cc1,-20,-7%,1,2,-2.6,
Cc1cccc(C)c1OCC(O)CNC(C)(C)C (stereo not given),-14,-3%,5,1,-1.8,
CC(=O)c1ccc(N2CCN(S(=O)(=O)c3ccc4c(c3)CC(C)N4C(=O)C3CC3)CC2)cc1 (stereo not given),x,x,x,8,-2.9,
Cc1[nH]n(-c2ccc(F)cc2)c(=O)c1C=Nc1ccc(S(=O)(=O)N(C)C)cc1,-26,-8%,1,9,1.6,
COC(=O)Cc1cnc(NC(=O)C2C3CCC(C3)C2C(=O)O)s1 (stereo not given),51*,-7%,14,-4,1.5,
CCCCC(=O)O,x,-5%,x,-7,2.5,
O=C(NCCc1ccccc1)c1ccc(NS(=O)(=O)c2ccc3[nH]c(=O)[nH]c3c2)cc1,x,x,x,-8,0.1,
O=C(c1cccc(F)c1)N1CCN(c2ccc([N+](=O)[O-])c(N3CCCCC3)c2)CC1,5,9%,-7,-5,-1.2,
CCOC(=O)C1(Cc2ccccc2)NC(c2ccccc2F)C2C(=O)N(CC)C(=O)C21 (stereo not given),-36,2%,-1,6,-0.3,
C/C(=N/NC(=O)C1CCCC1)c1ccc(NC(=O)C(F)(F)F)cc1,x,x,x,5,-3.7,
O=C(c1ccc2nsnc2c1)N1CCN(c2ccc([N+](=O)[O-])cc2)CC1,x,x,x,-10,0.1,
COc1ccc(-n2c(=O)cc(N3CCN(c4ccccc4)CC3)[nH]c2=O)cc1,10,-9%,0,8,20,
CC1(C)CC(=O)C2=C(C1)NC(=O)CC2c1cc(F)ccc1F (stereo not given),-28,-3%,7,3,0.2,
[O-]/[N+](=C\c1ccc(OC(F)F)cc1)c1ccccc1,55*,-1%,-12,3,-5.8,Arbovirus anti repeat=0
N#Cc1ccc(Oc2ccc(S(=O)(=O)N3CCCC3)cn2)cc1,x,x,x,-14,-0.1,
O=C(CCNc1ccc(Cl)cc1)c1cccs1,-25,u,-14,99,3.6,
Cn1c(CSCc2ccc(Cl)cc2)nnc1SCC(=O)Nc1nc2ccccc2s1,-23,-6%,12,4,9.8,
CCOC(=O)CCN(Cc1cccs1)S(=O)(=O)c1ccc(F)cc1,-37,-2%,3,-9,2.5,
CC1CC(=O)Nc2ccccc2N1S(=O)(=O)c1ccc(C(F)(F)F)cc1 (stereo not given),x,x,x,-11,-1.5,
Cc1ccc(CNC(=O)CN2C(=O)NC(C)(c3ccccc3Cl)C2=O)cc1 (stereo not given),x,x,x,-1,-1.8,
Cc1cc(C)c(C)c(C(=O)CSc2nnc(-c3ccc4[nH]c(C)c(C)c4c3)o2)c1C,-14,49%,-26,94,-0.2,
O=C(C1CCCN1C(=O)c1cccs1)N1CCc2ccccc21 (stereo not given),-26,-1%,0,-5,3.0,
CCN(CC)Cc1nc2c(c(=O)[nH]1)C(CC)(CC)Cc1ccccc1-2,x,x,x,97,5.3,
CCOC(=O)c1cn(Cc2ccccc2)c2cc(C)nn2c1=O,x,-9%,x,6,-3.2,
COc1ccc(-c2nn(CCC(=O)O)cc2/C=C2\SC(N)=NC2=O)cc1OC,-52,-14%,-2,-3,-0.9,
O=C(Cn1nc(C(F)(F)F)c2c1CCCCC2)N1CCOCC1,-14,-5%,1,13,-4.4,
CC1CCCCN1CC(=O)Nc1ccc2c(c1)OC(F)(F)O2 (stereo not given),x,4%,14,0,-3.7,
CCN(CC)C(=O)c1ccc(NC(=O)Nc2ccccc2F)cc1,x,5%,-15,0,3.2,
CC(=O)N1c2ccc(S(=O)(=O)N3CCCC3)cc2CC1C(=O)NCc1ccc(OC(C)C)cc1 (stereo not given),x,x,x,0,-1.1,
COc1cc(C(=O)Nc2nnc(Cc3ccccc3)s2)cc(OC)c1OC,x,x,x,11,3.4,
CC(C)(C)N(CC#CCC(O)(c1ccccc1)C1CCCC1)CCO (stereo not given),x,-4%,-1,0,1.7,
CCn1c(=N)n(CC(=O)c2ccco2)c2ccccc21,31,1%,-12,4,2.3,
COc1ccc(C2/C=C\CN(C(=O)NC34CC5CC(CC(C5)C3)C4)CC(=O)N2Cc2ccc(F)cc2)cc1 (stereo not given),x,10%,x,5,9.2,
Cc1ccc(NC(=O)CCC(=O)N2CCC(C)CC2)c([N+](=O)[O-])c1,x,x,x,-10,-1.7,
Cc1ccc(C(=O)NC2(O)C(=O)c3ccccc3C2=O)cc1C,x,-12%,x,-2,68*,
CCOC(=O)c1ccc(Nc2nc(C)nc3c2nnn3Cc2ccccc2)cc1,x,x,x,49,-0.9,
C/C(CCc1ccc2c(c1)OCO2)=N\N=C1\NC(=O)CC(C(=O)Nc2ccccc2)S1 (stereo not given),-22,-7%,5,x,-0.5,
CC(C)CNc1c(N)n(CC(C)C)c(=O)[nH]c1=O,x,6%,0,x,x,
COc1ccc(CNCCc2ccc(Cl)cc2)cc1OCc1ccccc1,x,u,-26,97,6.8,
Cc1c(C#N)c2ccccc2n1CC(=O)NC(C)c1ccccc1 (stereo not given),3,-6%,11,-6,x,
CCCCn1c(N)c(N(CC(C)C)C(=O)C2CC(=O)N(CCc3ccccc3)C2)c(=O)[nH]c1=O (stereo not given),x,x,x,-8,-0.5,
NNC(=O)c1ccc(CSc2nc3ccccc3s2)cc1,x,u,-7,2,-0.1,
CN(C)S(=O)(=O)c1ccc(N2CCCC2)c(C(=O)OCC(=O)NC2(C#N)CCCCC2)c1,x,x,x,-4,3.8,
CCn1c(COc2ccc(C)cc2)nnc1SCC(=O)NNC(=O)c1ccc(OC)cc1,-21,5%,-7,1,-0.2,
NS(=O)(=O)c1ccc(CCNC(=O)CN2CCC(Cc3ccccc3)CC2)cc1,x,0%,18,4,0.4,
O/N=C/c1ccc(-c2ccccc2OC(F)(F)F)o1,x,3%,x,4,x,
CCCCC1=NN2C(=N)CC(=O)N=C2S1,9,-4%,5,2,0.1,
CCn1c(C(=O)O)c(S(=O)(=O)c2ccc(Cl)cc2)c2ccccc21,x,x,x,7,-2.3,
CC(C(=O)Nc1ccccc1Cl)N(c1ccccc1)S(C)(=O)=O (stereo not given),x,5%,0,-3,-3.7,

# Random excerpt: 3 records from the list.
SMILES,YopH inh,Mtb growth,Arbovirus anti,Mtb betalactam,RecA splice inh,others
CCCCn1c(N)c(N(CC(C)C)C(=O)C2CC(=O)N(CCc3ccccc3)C2)c(=O)[nH]c1=O (stereo not given),x,x,x,-8,-0.5,
NNC(=O)c1ccc(CSc2nc3ccccc3s2)cc1,x,u,-7,2,-0.1,
CC(C(=O)Nc1ccccc1Cl)N(c1ccccc1)S(C)(=O)=O (stereo not given),x,5%,0,-3,-3.7,

# Entries from the list above that have two or more sulfur atoms (3):
SMILES,YopH inh,Mtb growth,Arbovirus anti,Mtb betalactam,RecA splice inh,others
Cn1c(CSCc2ccc(Cl)cc2)nnc1SCC(=O)Nc1nc2ccccc2s1,-23,-6%,12,4,9.8,
CCOC(=O)CCN(Cc1cccs1)S(=O)(=O)c1ccc(F)cc1,-37,-2%,3,-9,2.5,
NNC(=O)c1ccc(CSc2nc3ccccc3s2)cc1,x,u,-7,2,-0.1,

# Next part:
SMILES,YopH inh,Mtb growth,Arbovirus anti,Mtb betalactam,RecA splice inh,others
Cc1cc(C)n2nc(SCCOc3ccccc3F)nc2n1,x,2%,-8,-7,-0.7,
O=C(N/N=C/c1ccc(F)cc1)c1c(O)c2ccccc2[nH]c1=O,-10,67%,-2,92,-1.0,
Cc1occc1C(=O)OCC(=O)Nc1ccc(F)cc1,-57,3%,5,-4,3.0,
CCc1ccc2c(c1)C1(NN=C(c3ccccc3)S1)C(=O)N2 (stereo not given),19,-13%,-12,2,8.6,
COCCNC(=O)c1ccc(NS(=O)(=O)c2cc(C)ccc2C)cc1,31,-5%,14,4,-0.8,
COc1cc(NC(=O)c2ccc(Br)o2)ccc1NC(=O)c1ccccc1Cl,32,u,-12,5,11,
O=C(O)CCc1ccc(-c2ccc(Cl)cc2)n1CC(=O)Nc1ccccc1,x,x,x,0,-0.2,
CCOC(=O)CSC1=C(C#N)C(=O)NC2(CCCCC2)S1,-15,4%,7,-10,1.3,
O=C(NCc1cccc(Cl)c1)c1ccc2nc[nH]c2c1,-27,-5%,-28,-3,0.6,
COc1cccc(OC)c1C(=O)NC(=O)Nc1c(F)c(F)c(F)c(F)c1F,x,-4%,x,6,-1.0,
Oc1ccc(C(=S)N2CCN(c3cccc(Cl)c3)CC2)cc1,x,-2%,-4,-4,-3.4,
Cc1cc(C)c(S(C)(=O)=O)c(=O)[nH]1,x,-1%,8,-9,1.8,
CC(=O)Nc1cc(C(=O)N(C)Cc2ccco2)ccc1Sc1ccc(Cl)cc1,-19,4%,8,6,0.4,
Cc1nnc(SCC(=O)NC23CC4CC(CC(C4)C2)C3)s1,x,-8%,1,9,-0.1,
Cc1cccc(OCCCC(=O)Nc2nnc(C3CCCO3)s2)c1C (stereo not given),x,x,x,-11,-0.3,
N=c1oc2ccc([N+](=O)[O-])cc2cc1C(=O)NCc1ccccc1,x,x,x,91,-2.0,
COc1cccc(C2=CC(=O)CC(C)(C)C2)n1,x,-7%,x,15,-1.0,
O=C(NC1CCCc2ccccc21)C1CCN(S(=O)(=O)c2cccc3nsnc23)CC1 (stereo not given),-53,x,-3,-5,-1.0,
O=C(N/N=C/c1ccoc1)c1ccc(Br)cc1,x,x,x,-7,-2.9,
Nc1ccccc1C#Cc1ccc([N+](=O)[O-])cc1,x,x,x,81,0.8,
O=C(Oc1ccc([N+](=O)[O-])cc1)c1ccc2ccccc2n1,-47,0%,2,8,4.6,
Cc1cc2ncn(S(=O)(=O)N3CCCCC3)c2cc1C,-25,0%,6,-4,0.5,
Nc1nc(OCC2CCCCC2)c2[nH]cnc2n1,x,x,x,1,-0.7,
COCCNC(=O)c1ccc(C)c(S(=O)(=O)Nc2ccc(C)cc2)c1,-11,-3%,0,5,-3.3,
O=C1CCC(C(=O)N(Cc2ccco2)C2(C(=O)NC3CCCC3)CCCCC2)N1 (stereo not given),-9,-2%,13,0,-0.8,
O=C(CCC(=O)N1CCc2ccccc21)Nc1ccccc1,-27,-3%,-4,-1,0.8,
O=C(NCCc1ccc(F)cc1)c1cc2ccccc2oc1=O,x,x,x,-13,-0.1,
CCCCn1c(N)c(N(CCOC)C(=O)c2ccc(Br)o2)c(=O)[nH]c1=O,x,x,x,-2,1.6,
CC(C)C(=O)Nc1ccc(C(=O)N2CCN(C(=O)c3ccco3)CC2)cc1,-29,-1%,-2,x,3.1,
Cc1ccc(C(C)C)c(OCC(=O)c2c(O)c3ccccc3oc2=O)c1,-29,-8%,x,20,-3.8,
Cc1nc(SCC(=O)NCc2ccc(F)cc2)c2c(=O)n(C)c(=O)n(C)c2n1,-1,-4%,6,-4,-0.3,
CC1(C(=O)O)CCC(C(=O)Nc2ccc(OC(F)(F)Cl)cc2)C1(C)C (stereo not given),x,x,x,2,-0.4,
COc1cc2c(C(=O)N3CCN(C)CC3)c(C)oc2cc1Br,-23,-10%,1,4,x,
Cc1nn(-c2ccccc2)c2c1C(O)n1c(nc3ccccc31)S2 (stereo not given),-23,0%,7,0,6.9,
Oc1c(Cl)cc(Cl)cc1/C=N/c1nccs1,-31,5%,3,14,1.6,
CC(=O)c1ccc(N2Cc3ccccc3C2=NC(=O)c2cccs2)cc1,-14,5%,-5,13,-2.0,
CC(=O)N1N=C(c2cccc(Cl)c2)OC1c1ccc(C(C)C)cc1 (stereo not given),-22,-7%,-4,9,16,
COc1cccc(OCC(=O)O)c1,x,-5%,4,2,0.8,
COc1cccc(C(=O)N2c3cc(C)ccc3OCC2C(C)(C)C)c1 (stereo not given),x,x,x,-3,0.8,
Cn1cnc2cc(NC(=O)COc3ccccc3)ccc21,x,x,x,-1,-0.4,
COc1ccc(NC(=O)C2CCCN(C(=O)Nc3ccc(F)cc3)C2)cc1 (stereo not given),x,x,x,0,0.1,
COc1ccc(-c2[nH]ncc2CN2CCN(c3ccc(F)cc3)CC2)cc1,x,-12%,x,-11,3.4,
Cc1ccc(-c2nc(-c3ccncc3)no2)c(C)c1,x,x,x,6,3.1,
COC(=O)c1ccccc1C(=O)c1ccc2c(c1)NC(=O)CO2,x,13%,10,18,-0.7,
CC(OC(=O)CC1CC2CCC1C2)C(=O)Nc1ccc(N2CCOCC2)cc1 (stereo not given),x,-6%,1,9,-2.8,
CC(C)(C)c1cc(/C=N/NC(=O)Cc2nc3ccccc3[nH]2)cc(C(C)(C)C)c1O,11,23%,-8,-8,-4.7,
Cc1cc(N2CCN(C)CC2)nc2ccc(NC(=S)NCc3cccs3)cc12,x,27%,6,-1,-2.2,
